Screens from PubChem BioAssay.
RE007 growth inh: less growth of the S. pombe RE007 Vpr strain. S. pombe RE007 Vpr strain, BacTiter-Glo ATP luminescence, 24 h; control for the full effect not named in the record. Potency, µM (highest dose often 92.2 µM), for inactives: top-dose activity change, negative = less growth. 0.21% of 360,000 active. AID 651644; active = well fitted falling curve with a large enough effect; inconclusive = small, poorly fitted or top-dose-only effect; inactive = no such curve, though single readings can be large or run the other way;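 further: nearly all actives have a fitted effect of over 50% in size; the assay follows cell death caused by Vpr and the record does not say whether a fall means rescue or toxicity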
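Fission yeast RE007 carrying one integrated HIV-1 vpr copy, seeded at OD 0.01 in PMG+AL medium with 23 nL pinned compound. Grown 24 h at 30 degrees; viability read by BacTiter-Glo luminescence after 5 min.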
2A StopGo: FMDV 2A StopGo reporter, luciferase signal; human cells with a luciferase reporter of 2A StopGo recoding; control for the full effect not named in the record; Potency, µM (top dose mostly 57.9 µM), for inactives: at the highest dose signal change, negative = less light; 1.2% of 410,000 active; AID 1159524; active = well fitted falling curve with a large enough effect; inconclusive = small, poorly fitted or top-dose-only effect; inactive = no such curve, though single readings can be large or run the other way; tested in HEK293T cells; further: nearly all actives have a fitted effect of over 45% in size; luciferase light after 4 h
Numbers without * were called inactive; ? = inconclusive; nt = no result given; [ ] = dose if it differs, or a comment. On the % scale 0 is the no-effect control and ±100 the full control effect; potency means the concentration at half of the fitted maximal effect.

SMILES	RE007 growth inh	2A StopGo
CC1CCC(NC(=O)c2nn(C)c(=O)c3ccccc23)CC1 (stereo not given)	1%	28%
O=c1[nH]c2ccccc2n1C1CCN(C(CCc2ccccc2)c2nnnn2Cc2ccccc2)CC1 (stereo not given)	16%	35µM*
Cc1cc2c(=O)[nH]c(N)nc2[nH]1	-8%	-23%
O=C(Nc1nnc([C@H]2C[C@H](O)[C@@H](CO)O2)s1)Nc1ccc(F)cc1F	19%	30%
CC(=O)N1C[C@H]2CON(C)[C@H]2C[C@H]1c1cccc(-c2ccc(C#N)cc2)c1	14%	-17%
CC1(C)CC2(C)OC2C2(C1)N=NC(=Nc1ccccc1)O2 (stereo not given)	-19%	0%
CCNC(=O)C1(C)CCCN(C(=O)CCc2cccs2)C1 (stereo not given)	-4%	-11%
COc1ccccc1-c1cccc([C@@H]2C[C@H]3[C@H](CON3C)CN2C)c1	-16%	17%
OC(c1ccccc1)(c1nc(-c2ccccc2)cs1)C(F)(F)F (stereo not given)	9%[18.4 µM]	22%
Cc1ccc(S(=O)(=O)N2Cc3cc(N4CCOCC4)ccc3-n3nncc3C2)cc1	5%	-12%
CN1CCN(C(=O)c2cc3c(c(-c4cccc(-c5cccnc5)c4)n2)[C@@H](CCO)N(C(=O)CC2CC2)C3)CC1	0%	-15%
Cc1ccc(S(=O)(=O)N2CCN(C(=O)C(O)c3ccccc3)CC2)cc1 (stereo not given)	9%	-10%
NC(=O)COc1ccc(S(=O)(=O)N2CCCC2)cc1	-1%	0%
CCOC1=C2CN(S(=O)(=O)c3ccc(C)cc3)[C@H](c3ccccc3)C[C@@H]2N(S(=O)(=O)c2ccc(C)cc2)[C@H](c2cccs2)C1	5%	-8%
Cc1ccccc1S(=O)(=O)N(C)C[C@@H]1OCc2cnnn2CCCC(=O)N([C@@H](C)CO)C[C@@H]1C	-3%	-5%
COc1cc(CNC(=O)c2ccc3c(c2)S(=O)(=O)c2ccccc2C3=O)cc(OC)c1	8%	-8%
CC1(C(=O)NCc2cccc(C(F)(F)F)c2)CCN1Cc1cc2ccccc2o1 (stereo not given)	-14%[18.4 µM]	-20%
C=C(CCO)C1=CCN(S(=O)C(C)(C)C)[C@@H]1CCO (stereo not given in full)	3%	-5%
COc1ccc(C(C)=O)cc1Cn1c(C)c(C(=O)NCC(C)C)sc1=O	-7%[18.4 µM]	-16%
CC(C)(C)NC(=O)C(c1ccccc1)n1c(-c2ccc(-c3ccccc3)cc2)nc2ccccc21 (stereo not given)	1%	2%
CC(C)CN1C(=O)CN(S(C)(=O)=O)CC1(C)C(=O)Nc1ccc2c(c1)OCCO2 (stereo not given)	9%	9%
CCc1ccc(CN(C)Cc2c(C(=O)N3CCOCC3)nc3c(C)cccn23)nc1	-7%	-15%
CN(C)c1ccc(N2[C@@H](CC(=O)O)c3cc(C(F)(F)F)ccc3S2(=O)=O)cc1	-5%	?
Clc1ccc(-c2cn(-c3nc4ccccc4s3)nn2)cc1	1%	27%
Cc1[nH]oc(=O)c1N=Nc1ccc2[nH]c(=O)[nH]c2c1	6%	12%

Next part.
SMILES	RE007 growth inh	2A StopGo
Cc1cc(C)nc(NC2=N[C@@H]3CCCC[C@H]3N2C(=O)Nc2cc(Cl)cc(Cl)c2)n1	2%	-36%
COC/C=C1\CN2C3C[C@@H]1[C@H]1COC4=Nc5cc(OC)c(OC)c(OC)c5[C@@]43C[C@@H]12	0%	-8%
COc1ccc(CNC(=O)C2Cc3c(-c4ccc5c(c4)OCO5)ccnc3O2)cc1OC (stereo not given)	0%[18.4 µM]	?
C[C@H](CO)N1C[C@H](C)[C@@H](CN(C)Cc2ccc(F)cc2)Oc2ncc(Br)cc2C1=O	18%	-22%
Cc1ccc(NC(=O)Nc2nnc([C@H]3C[C@H](O)[C@@H](CO)O3)s2)cc1	14%	29%
Cc1nc2c(OCc3ccc(F)cc3)cccn2c1N(C)C(=O)CCC1CCCC1	-4%	?
COc1ccc(C(CNC(=O)CCNS(=O)(=O)c2ccc(Br)cc2)N2CCOCC2)cc1 (stereo not given)	1%	3%
CC(C)CN1C(=O)CN(S(C)(=O)=O)CC1(C)C(=O)NCc1ccccc1 (stereo not given)	-8%	-19%
O=C(CSc1ccccc1)NC1CC1	1%	1%
COc1ccc(Cl)cc1CN1C(=O)C(Cc2ccccc2)ON=C1C (stereo not given)	nt	-19%
CCCCN1CC(=O)N2[C@@H]3c4cc(Br)ccc4OC[C@@H]3[C@H](C(=O)OCC)[C@]2(C)C1=O	-9%	-3%
COC(=O)C[C@@H]1CC[C@@H](NS(=O)(=O)c2cccc(OC)c2)[C@@H](CO)O1	8%	-17%
COc1ccc(Nc2nc(-c3cccs3)nc3ccccc23)cc1S(=O)(=O)N1CCOCC1	4%	?
C[C@@H]1CN([C@@H](C)CO)S(=O)(=O)c2ccc(C#Cc3cccc(F)c3)cc2O[C@H]1CN(C)S(=O)(=O)c1cn(C)cn1	7%	-17%
NC(=O)/C(=C\c1ccco1)NC(=O)c1ccco1	9%	17%
Cc1ccc(C2=NOC(=O)/C2=C\c2ccccc2)cc1	-11%	?
Cn1ccnc1CC(C)(O)c1ccccc1 (stereo not given)	-15%	-10%
COc1ccc(NC(=O)c2cccc(S(=O)(=O)N3CCc4ccccc43)c2)c(OC)c1	5%	-9%
CCOC(=O)CSCc1csc(CC(=O)Nc2ccccc2C)n1	2%	-7%
COc1ccc(CN2C(=O)C(CC(=O)NCCN3CCOCC3)CC(C(=O)N3CCOCC3)=C2C)cc1 (stereo not given)	-7%	-8%
COc1cc(-c2cc(NC(C)=O)c3ncc(-c4ccc(F)cc4)n3c2)cc(OC)c1OC	-17%	-25%
CCCS(=O)(=O)NC(=O)C1(C)CCCN(C(=O)C(C)(C)Oc2ccc(Cl)cc2)C1 (stereo not given)	-7%	-13%
COc1c(C)cc(C(O)c2ncc(-c3cccc(F)c3)[nH]2)cc1C (stereo not given)	-16%	15%
COc1ccc(-n2nnnc2C(C2CC2)N2CCN(C/C=C/c3ccccc3)CC2)cc1 (stereo not given)	-11%	-19%
CCCCOCCCNC(=O)C[C@@H]1C[C@@]2(C(=O)OC)CCCCC=C2N(Cc2ccccc2)C1=O	-4%	-26%

New compounds follow.
SMILES	RE007 growth inh	2A StopGo
CCCCn1c(OC(=S)N(CC)CC)cc(C)nc1=S	4%	0%
O=C(Nc1cccc2[nH]c([C@H]3C[C@H](O)[C@@H](CO)O3)nc12)NC(c1ccccc1)c1ccccc1	7%[18.4 µM]	-17%
CC(=O)Nc1cccc(-c2ccnc3c2CC(C)(C(=O)NCc2ccncc2)O3)c1 (stereo not given)	-23%	-17%
CCCOc1ccc(F)cc1-c1cc(C(=O)NCc2cc(C(F)(F)F)cc(C(F)(F)F)c2)[nH]n1	3%	?
O=C(NC(=S)N1CC=CCC1)c1ccccc1	3%	1%
Cn1c(=O)c2c(-c3ccccc3)n(-c3cccc(Br)c3)cc2n(C)c1=O	-16%	?
CC(C)(C)S(=O)N1Cc2cc(C(=O)NCc3ccc(Oc4ccccc4)cc3)nc(-c3cccc(-c4cc5ccccc5o4)c3)c2[C@H]1CCO (stereo not given in full)	-19%	-9%
Cc1ccc(CNc2nc(NCC3CC3)nc3ccsc23)c(C)c1	-6%	?
Cc1ccc(S(=O)(=O)NC(=O)C2(C)CCN2C(=O)Cc2cccs2)cc1 (stereo not given)	13%	2%
CCN1CCN(C(CCc2ccccc2)C(=O)NC2CCCCC2)CC1 (stereo not given)	-18%	-8%
C[C@@H]1CN([C@H](C)CO)C(=O)CCCn2nncc2CO[C@H]1CN(C)Cc1ccc2c(c1)OCO2	5%	-23%
COc1ccc(OC)c(S(=O)(=O)Nc2ccc3c(c2)OCCO3)c1	2%	4%
C[C@@H]1CN([C@H](C)CO)C(=O)CCCn2nncc2CO[C@H]1CN(C)C(=O)c1ccncc1	-11%	-8%
CCN(CC)C(=O)C1=C(C)N(CCCOC)C(=O)C(CC(=O)NCCCCc2ccccc2)C1 (stereo not given)	4%	-19%
COc1ccc2ccc(OC)c(/C=N/NC(=O)c3cc4ccccc4o3)c2c1	0%	25%
Cc1n[nH]c(C)c1NC(=O)CN1CCN(S(=O)(=O)c2ccc(C(F)(F)F)cc2)CC1	-7%	-9%
Cc1ccc(S(=O)(=O)N2CCOCC2)cc1NC(=O)CN(C)CC(=O)Nc1cccc(F)c1	-16%	?
COc1cc2sc3ccc(-c4ccc5[nH]ccc5c4)cc3c(=O)c2cc1OC	3%	42%[activator]
CC(C)C[C@H]1CNC(=O)C(=O)N1C[C@@H]1CCCN1C[C@H](Cc1ccc(O)cc1)N1C[C@H](Cc2ccccc2)N(CC2CCCCCC2)C(=O)C1=O	-2%	60%[activator]
CCOC(=O)N1CCN(C(=O)C2CCC(=O)N(Cc3ccccc3OC)C2)CC1 (stereo not given)	7%	22%
C=CCCC(=O)N1C[C@H]2CCN(C)[C@H]2C[C@H]1c1ccccc1	-6%	-17%
CC(C)(C)c1ccc(C(=O)N2CCC2(C)C(=O)Nc2cccc(C#N)c2)cc1 (stereo not given)	-9%[18.4 µM]	?
COc1ccc(CNC(=O)c2ccc(N3CCC4(CC3)CC(c3ccc(Cl)cc3)=NO4)c([N+](=O)[O-])c2)cc1	1%	?
CCCNC(=O)C1(C)CCCN(Cc2ccc(-c3ccccn3)cc2)C1 (stereo not given)	-25%	0%
COc1ccc(-c2cnc3c(NC=O)cc(-c4cc(OC)c(OC)c(OC)c4)cn23)cc1OC	-6%[18.4 µM]	-17%

Later entries:
SMILES	RE007 growth inh	2A StopGo
CSCCC(NC(=O)OCc1ccccc1)NC(=O)OCc1ccccc1	7%	20%
CC1(C(=O)NS(=O)(=O)c2ccccc2Cl)CCN1C(=O)C1(c2ccc(Cl)cc2)CC1 (stereo not given)	2%[18.4 µM]	40%[activator]
O=C(C1=NOC2(C1)C(=O)Nc1ccccc12)N1CCCCC1 (stereo not given)	4%	-12%
CC(C)N1CC(C(=O)Nc2ccc(Cl)cc2Cl)CC1=O (stereo not given)	3%	3%
CNc1cncc(-c2cc(C)c(O)c(C)c2)n1	-23%	32%[activator]
COCCNC(=O)C1(C)CCCN(C(=O)c2ccc(C(=O)OC)cc2)C1 (stereo not given)	0%	-19%
c1ccc(COc2ccc(-c3cc4nc(NCc5ccc6c(c5)OCO6)ccn4n3)cc2)cc1	-4%	-29%
Cn1c(-c2ccc(C#N)cc2)c(C#Cc2ccccc2)c2ccccc21	-5%	24%
O=C(COC(=O)c1nc(Cl)ccc1Cl)Nc1cccc(S(=O)(=O)N2CCOCC2)c1	-9%	-19%
CC(C)(C)OC(=O)N(Cc1ccccc1)Cc1ccc(OCc2cccc(NC(=O)C3CC3)c2)cc1	-4%	14µM*
Cc1ccc(-n2c(=O)[nH]c3ccccc3c2=O)cc1[N+](=O)[O-]	6%	-2%
CC(C)CCOc1ccc(C(=O)Nc2cc(S(=O)(=O)N3CCOCC3)ccc2N2CCOCC2)cc1	17%	-2%
Cc1cccc(C)c1-n1nnnc1C(c1ccnc2ccccc12)N1CCN(C(=O)OCc2ccccc2)CC1 (stereo not given)	3%	-24%
COc1ccc(C(C)(NC(C)=O)c2nc(/C=C/c3ccccc3)cs2)cc1 (stereo not given)	12%	-16%
CC(C)=CCc1c(-c2ccc(O)cc2O)oc2cc3c(c(O)c2c1=O)C=CC(C)(C)O3	?	1%
CN(Cc1ccccc1)C(=O)c1csc([C@@H]2O[C@H](CO)[C@H](O)[C@H](O)[C@H]2O)n1	3%[18.4 µM]	-19%
COC(=O)N1CCCCC1c1cc(C(=O)Nc2ccc(OC)cc2C)no1 (stereo not given)	10%	33%[activator]
O=C(Nc1cc(C(F)(F)F)ccc1N1CCCCC1)C1=COCCO1	5%	?
COc1ccc(CCN2CC(=O)NC(=O)C2)cc1OC	-15%	-7%
Cc1cccc(NC(=O)CN2CCN(C(=O)CN3C(=O)NC4(CCCCC4C)C3=O)CC2)c1C (stereo not given)	8%	?
c1ccc(COc2ncnc3c2ncn3CCCNCC(c2ccccc2)c2ccccc2)cc1	-11%	?
COc1ccc(-c2ccc(C(=O)NC(C)C)c3occc23)c(C)c1	4%	?
COc1ncnc2c1ncn2CCCNCC(C)c1ccccc1 (stereo not given)	-28%	2%

These rows are one share of the data (hit frequency here may not be typical).
